# Screening results: PubChem BioAssay, National Center for Advancing Translational Sciences (NCATS)
# Six1-Eya2 blk – Six1/Eya2 interaction inhibition; Q15475+O00167; AlphaScreen GST-Six1/His-Eya2 binding, biochemical; active compounds read low; control for the full effect not named in the record; activity change, % (test concentration not listed); 360,000 compounds, 0.56% hits; in the data active = activity change below about -65%; inconclusive = about -30% to -65%; inactive = above about -30%; note: % is set by controls: 0 for no effect and ±100 for the full control effect
# Target sequence (O00167 whole entry, looked up): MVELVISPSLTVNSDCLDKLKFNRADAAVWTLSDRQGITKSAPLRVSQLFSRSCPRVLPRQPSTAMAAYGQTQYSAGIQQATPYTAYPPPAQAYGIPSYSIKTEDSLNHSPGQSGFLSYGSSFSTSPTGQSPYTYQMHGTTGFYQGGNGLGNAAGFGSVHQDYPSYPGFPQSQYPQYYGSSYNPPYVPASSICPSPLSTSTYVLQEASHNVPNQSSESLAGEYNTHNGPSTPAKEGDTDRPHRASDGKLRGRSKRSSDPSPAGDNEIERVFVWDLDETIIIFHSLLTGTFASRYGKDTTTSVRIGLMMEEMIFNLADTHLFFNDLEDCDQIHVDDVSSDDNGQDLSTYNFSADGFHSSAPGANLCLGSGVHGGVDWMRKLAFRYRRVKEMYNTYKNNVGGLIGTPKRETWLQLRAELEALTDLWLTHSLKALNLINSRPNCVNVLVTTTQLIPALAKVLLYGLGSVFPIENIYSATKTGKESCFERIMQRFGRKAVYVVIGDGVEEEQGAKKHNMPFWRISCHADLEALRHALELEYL
# Target sequence (Q15475 whole entry, looked up): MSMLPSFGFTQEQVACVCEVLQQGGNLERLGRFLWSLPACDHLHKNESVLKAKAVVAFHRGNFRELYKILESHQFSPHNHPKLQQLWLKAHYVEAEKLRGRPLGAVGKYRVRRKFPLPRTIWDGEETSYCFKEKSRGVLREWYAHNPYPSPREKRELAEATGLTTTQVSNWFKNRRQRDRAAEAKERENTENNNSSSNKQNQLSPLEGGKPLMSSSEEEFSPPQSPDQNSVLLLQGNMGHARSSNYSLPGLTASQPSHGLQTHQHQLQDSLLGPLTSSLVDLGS
#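 GST-Six1 + His-Eya2 (5X stock: 250/500 nM); Tris pH 8.0, 300 mM NaCl, 0.05% BSA, 0.02% Tween 20; GSH donor/Ni acceptor beads; 1 h 37 °C dark; AlphaScreen readout.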
# TRPML1 ag – human mucolipin-1 channel agonism; Q9GZU1; TRPML1-expressing cells, Ca2+ dye fluorescence, FDSS; host cell line not named in the record; reference of the full effect not given here; activation, % (test concentration not listed); 410,000 compounds, 0.12% hits; in the data active = activation above about 50%; inconclusive = about 30% to 50%; inactive = below about 30%; note: 0% is about no effect; the text of the record puts the active cut at 80%
#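 Cells: TRPML1-DL, 1X Tet inducer, ~16 h at 37 degrees C/5% CO2. Dye: ABD Ca8 no-wash + quencher, 45-90 min RT. Read: 10 s baseline, compound add, 110 s agonist phase; 54-4 EC80 (4uM final), 110 s antagonist phase.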
# TRPML1 inh – inhibitors of human TRPML1 channel; activity change, negative = inhibition, % (test concentration not listed); AID 624415; TRPML1-inducible cells, Ca2+ dye fluorescence, FDSS; active compounds read low; inhibition of EC80 agonist-evoked calcium signal; 390,000 compounds, 0.02% hits; in the data active means activity change below about -50%; inconclusive means about -30% to -50%; inactive means above about -30%;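 note: stimulus is agonist 54-4 at its EC80 concentration; % is set by controls: 0 for no effect and ±100 for the full control effect; compound concentration not given in the record; the text of the record puts the active cut at -80%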
#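 Tet-induced TRPML1-DL cells loaded with Ca8 no-wash calcium dye were read kinetically on FDSS. Compound addition was followed by EC80 agonist 54-4 (4 uM final); inhibition was read over 110 s.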
# TRPV1 potentiator – potentiators of human vanilloid receptor 1 (TRPV1). Q8NER1. TRPV1-expressing cells, Fluo-8 calcium influx, capsaicin EC20 potentiation; host cell line not named in the record; control for the full effect not named in the record. potentiation, % at 8.33 µM. 320,000 compounds, 0.02% hits. AID 540277; active means potentiation above 80%; inconclusive means 30% to 80%; inactive means below 30%; note: 0% is about no effect
#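 Cells expressing TRPV1 were dye-loaded with Fluo-8 and read kinetically: 10 s baseline, 3 min after compound (agonist portion), then 2 min after EC20 capsaicin (allosteric enhancer portion). Calcium-bound dye fluorescence at 480/520 nm.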
# D2 potentiator – positive allosteric modulators of human D2 dopamine receptor. P14416. DiscoveRx D2 beta-arrestin cells, luminescence, 90 min; 100% = 57 uM dopamine signal. potentiation, % (concentration not given with the values). 360,000 compounds, 0.23% hits; active = potentiation of 50% or more; inconclusive = 30% to 50%; inactive = 30% or less;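 note: tested on top of an EC20 dose of dopamine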
#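 D2 cells co-treated with compound plus 50 nM dopamine (EC20) for 90 min at 37 deg C to detect potentiation. Beta-arrestin recruitment was read as enzyme-fragment luminescence after 1 h at ambient temperature. Full response was set by 57 uM dopamine.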
# CtBP-E1A inh – CtBP/E1A binding inhibition; activity change, % (no concentration beside the values); AID 651724; AlphaScreen GST-E1A/His-CtBP binding, 1536-well; active compounds read low; control for the full effect not named in the record; 340,000 compounds, 0.49% hits; in the data active means activity change below about -65%; inconclusive means about -30% to -65%; inactive means above about -30%; note: % is set by controls: 0 for no effect and ±100 for the full control effect
#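 Protein mix (5X: 125 nM each GST-E1A, His-CtBP) was incubated with pinned compound 2 h at 37 deg C in dark, in 50 mM Tris pH 8.0 buffer with 300 mM NaCl. Glutathione donor and nickel acceptor beads followed; AlphaScreen signal read after 1 h.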
# The depositor's hits bear a star; ? = inconclusive; . = not tested or not shown; & = joins results of further samples.
SMILES	Six1-Eya2 blk	TRPML1 ag	TRPML1 inh	TRPV1 potentiator	D2 potentiator	CtBP-E1A inh
NC(=O)CCC(NC(=S)Nc1ccccc1)C(=O)O (configuration not stated)	10	-0.5	-6	4	-7	7
O=C(CN1C(=O)S/C(=C\c2cccc(Cl)c2)C1=O)NCCCn1ccnc1	-9	3.8	7	1	-7	.
O=CN(c1ccccc1)c1ccc2ccccc2c1	-1	0.0	11	1	0	1
CCCCSc1nc2c(c(=O)n1CC)SC(C)C2 (configuration not stated)	0	3.4	2	-12	-1	-2
COc1ccc(CCNC(C)C(=O)Nc2ccc(S(N)(=O)=O)cc2)cc1 (configuration not stated)	0	-0.3	-21	-3	-12	-2
Cc1csc(NC(=O)CCc2ccc(S(=O)(=O)N3CCOCC3)cc2)n1	-8	0.4	11	4	5	-5
O=Cc1ccc2noc(-c3ccc(Cl)cc3)c2c1	2	0.8	26	-5	80*	-3
Cn1c(CC(=O)Nc2ccccc2C(F)(F)F)c(Sc2ccccc2)c2ccccc21	0	3.1	-5	4	-1	-10
O=C(CNC(=O)c1ccccc1F)N/N=C/c1cc(Br)ccc1OC(=O)/C=C/c1ccco1	-90*	1.4	-3	8	-1	-92*
Cc1ccoc1C(=O)NCCCNC(=O)c1occc1C	1	5.7	29	7	-15	-1
NC(COCc1ccccc1)c1csc(Nc2ncccn2)n1 (configuration not stated)	-81*	-1.0	.	.	-9	-85*
CCOC(=O)N1CCN(C(=O)c2ccc(S(=O)(=O)Nc3cccc(C(F)(F)F)c3)cc2)CC1	-1	-0.3	34	-5	6	-1
COc1ccccc1C1C2=C(COC2=O)Nc2cc3c(cc21)OCO3 (configuration not stated)	2	-0.3	-6	-3	-3	3
COCCNc1oc(-c2cccs2)nc1S(=O)(=O)c1ccc(C)cc1	-21	-0.6	-19	-15	-5	9
O=C(Nc1ccc(F)cc1)C(=O)c1c(O)[nH]c2ccc([N+](=O)[O-])cc12	1	0.4	-10	12	-1	-18
CCOC(=O)C1(C)CCCN(C(=O)c2ccccc2OC(F)(F)F)C1 (configuration not stated)	35	-0.2	1	.	1	2
CNC(=S)N(CCO)Cc1cc2cc3c(cc2[nH]c1=O)OCCO3	13	0.8	-8	14	-11	.
CSc1ccn(CCC(=O)O)c(=O)n1	2	-0.6	1	-2	0	1
O=C(c1cc2ccccc2o1)N1CCN(S(=O)(=O)c2ccc(F)c(F)c2F)CC1	0	-0.2	-7	2	-3	-5
Cc1ccc(C)c(NS(=O)(=O)c2ccc3c(c2)NC(=O)CO3)c1	-1	-0.4	-11	6	-6	-5
O=C(CSc1ncn[nH]1)N1CCN(c2nnc(-c3ccccc3)c3ccccc23)CC1	-18	0.5	-1	-4	-7	-13
O=C(NCCCN1CCOCC1)c1cnn2c(-c3ccccc3)cc(-c3ccccc3)nc12	-2	-0.4	-5	-10	-42	5
O=C(NNc1nc2ccccc2s1)Nc1ccccc1	-3	0.3	1	1	-19	-7
CC1(C)CCC(=O)c2ccccc21	5	0.2	-2	.	-26	-4
COc1cccc(CN2CCC2(C)C(=O)Nc2ccc(C)c(O)c2)c1F (configuration not stated)	-3	-1.1	.	.	1	-20
Cc1cc(C(=O)NC(=S)Nc2ccccc2N2CCCC2)ccc1[N+](=O)[O-]	-9	-0.3	-13	-7	4	-2
COc1ccc(-c2cc(NC(C)=O)c3ncc(-c4cccc(C(C)=O)c4)n3c2)cc1OC	-14	-0.8	.	.	1	-16
NC(=O)c1cc(-c2ccccc2)nc(Oc2ccccc2)n1	-2	-0.3	0	-10	5	-5
COc1ccc(CN2CCC[C@]3(N[C@H](c4ccc(OC)cc4)[C@@H]4C(=O)N(Cc5ccccc5)C(=O)[C@@H]43)C2=O)cc1	-1	0.5	-3	.	-5	-12
CC1(C)CC(=O)/C(=C(\O)Cc2ccccc2)C(=NCCCCCC(=O)O)C1	0	0.1	-6	4	-7	-15
O=C(CSCc1ccc([N+](=O)[O-])cc1)Nc1ccccc1C(=O)O	4	-0.8	-3	11	2	6
O=C(c1ccccc1F)N1CCN(c2ccc([N+](=O)[O-])cc2-n2cccc2)CC1	?	1.4	54	21	0	-28
Cc1ccc(NC(=O)COC(=O)c2sccc2C)cc1S(=O)(=O)N1CCOCC1	-12	0.6	3	-4	-6	-2
COc1ccc(NC(=O)COC(=O)c2cc(SC)ccc2Cl)c(OC)c1	-1	0.3	-7	22	-10	8
O=C(O)c1ccc(/C=N/n2cc(-c3ccccc3)[nH]c2=S)cc1	-9	-0.9	33	2	-18	.
Cc1ccc(S(=O)(=O)NCc2ccc(C(=O)N3CCN(c4ccc([N+](=O)[O-])cc4)CC3)cc2)cc1	-8	2.3	48	-7	8	.
Cc1cc(C)nc(NS(=O)(=O)c2ccc(N/C=C/C(=O)c3ccc(Cl)cc3)cc2)n1	0	1.6	3	5	-9	-1
CCCCC(=O)Nc1ccc(C(=O)NNC(=S)NC(=O)c2ccccc2[N+](=O)[O-])cc1	-9	-0.1	23	1	-6	-5
Cc1cc(C)cc(NC(=O)C(=O)NCCCN2CCOCC2)c1	11	0.1&0.0	7&-1	3	-2	-1
COc1cc(/C=C/[N+](=O)[O-])ccc1OC(=O)/C=C/c1ccc(F)cc1	?	0.5	6	-6	-6	-90*
CC1(c2ccc3ccccc3c2)NC(=O)N(CC(=O)N2CCCC(C(F)(F)F)C2)C1=O (configuration not stated)	1	2.2	-2	0	-3	-14
Cn1c(=O)c2c(nc(CN3CCN(c4ccccc4)CC3)n2CCN2CCOCC2)n(C)c1=O	-1	-0.1	25	-5	-16	5
S=C(NCC1CCCO1)NC1CCCCC1 (configuration not stated)	4	2.9	-2	-11	-9	-2
Cc1cccc(-c2c(O)cc(=O)[nH]c2Cl)c1	2	0.4	2	2	-3	1
Cc1ccc(N(CC(=O)NCc2ccc(Cl)cc2)S(C)(=O)=O)cc1	-1	-0.1	-1	-6	-5	13
CCCc1nnc(NC(=O)CCC(=O)N2CCN(CCn3c(C)ccc3C)CC2)s1	-10	1.8	-14	-2	-17	-3
Cc1ccc(C)c(S(=O)(=O)N2CCCOC2CNC(=O)C(=O)NC2CCCC2)c1 (configuration not stated)	0	-0.7	-1	3	-4	-1
COc1cc(OC)c(NC(=O)c2ccoc2C)cc1Cl	0	2.5	13	10	5	2
C#CCN(C[C@@H]1[C@@H](OC(=O)NC2CC2)[C@@H](OC(=O)NC2CC2)CN(C(=O)OC(C)C)N1C(=O)OC(C)C)S(=O)(=O)c1ccc(C)cc1	0	0.5	-5	.	-1	-22
O=C(NC(=S)NCc1ccco1)c1ccccc1	0	1.2	-11	2	1	13
O=C(NCC1CCCO1)c1cc2cc(F)ccc2[nH]1 (configuration not stated)	-28	.	.	5	-12	0
CCOC(=O)C1Cc2c([nH]c3ccccc23)CN1 (configuration not stated)	0	-0.2	10	18	-4	0
Cc1cc(C)cc(NC(=O)C2CCN(C(=O)c3cccs3)CC2)c1	4	-0.4	19	7	-14	3
CCc1nc(SCC(=O)N2CCc3cc(OC)c(OC)cc3C2)c(C#N)cc1C	-1	-1.8	-1	.	-9	-1
O=C(COC(=O)c1cc(S(=O)(=O)N2CCOCC2)cs1)c1ccccc1	5	1.2	18	-1	-16	-6
COc1ccccc1OCc1ccc(C(=O)Nc2ccc(Cl)cn2)o1	-2	2.3	-5	-8	-1	3
COc1cc(NS(=O)(=O)c2ccc3ccccc3c2)c2ncccc2c1	?	1.8	-16	5	-1	?
Cc1cc(C)nc(SCc2ccc(C(=O)O)o2)n1	7	-0.4	18	7	-5	-1
CCCCn1c(SCC(=O)c2ccc(O)c(O)c2)nc2ccsc2c1=O	-12	4.2	-2	-4	11	-3
COc1ccc(Cc2nc3ccccc3c(=O)n2N)cc1OC	-9	0.0	0	.	-9	-2

# Next part.
SMILES	Six1-Eya2 blk	TRPML1 ag	TRPML1 inh	TRPV1 potentiator	D2 potentiator	CtBP-E1A inh
CCOC(=O)c1cnc2ccc(C(=O)OC)cc2c1Nc1ccc2c(c1)OCCO2	3	3.0	-5	-14	6	0
CC(C)c1ccc(NC(=O)CN2CCN(c3ccccn3)CC2)cc1	1	0.6	4	-4	-9	1
CC(C)CN(C(=O)CSc1nc(N)cc(N)n1)C1CCS(=O)(=O)C1 (configuration not stated)	2	-0.3	17	.	7	-4
Cc1cc(C)nc(N/N=C/c2ccc(N3CCOCC3)cc2)n1	2	-1.3	-6	2	-22	34
O=C(O)CCSc1nnc(-c2ccc3c(c2)OCO3)o1	3	-0.5	8	28	-17	3
O=C(c1ccc(S(=O)(=O)N2CCCCCC2)cc1)N1CCN(c2ccccn2)CC1	-1	0.1	8	15	-3	4
CCOc1ccccc1NC(=O)c1ccc2[nH]c(C)c(C)c2c1	-13	-0.4	-1	?	-3	-1
O=C(NC(c1ccc(F)cc1)c1ccc2ccccc2n1)C1CCN(CCOc2ccc(F)cc2)CC1 (configuration not stated)	-30	0.4	.	.	-19	?
Cc1cc(/C=N/n2cnnc2)c(C)n1-c1ccc(Cl)cc1Cl	-13	0.4	16	-36	-9	-13
Cc1c(NC(=O)COC(=O)c2ccc[nH]c2=O)c(=O)n(-c2ccccc2)n1C	1	-0.5	6	3	-3	5
CC(C)C(NC(=O)c1c(F)cccc1F)C(=O)NC1CC(C)(C)NC(C)(C)C1 (configuration not stated)	4	0.2	0	7	-5	4
Cc1ccc(C)c(NC(=O)C2CCC(C)(C(=O)O)C2(C)C)c1 (configuration not stated)	10	-0.5	1	4	0	-2
CCN(CC)CCn1c(NCc2ccc(C)o2)nc2ccccc21	-6	2.1	-4	-1	-50	3
COCCN(CCOC)C(=O)CN1C(=O)NC(Cc2c[nH]c3ccccc23)C1=O (configuration not stated)	3	1.0	-6	4	-27	0
O=C(NCCS(=O)(=O)N1CCc2ccccc2C1)c1ccccc1	-1	0.4	18	-18	-24	5
C=CCN(Cc1nc(-c2ccc(OC)c(OC)c2)oc1C)C1CCS(=O)(=O)C1 (configuration not stated)	0	1.6	-6	2	-3	2

# Gathered by group, the entries above with a CF3 group
SMILES	Six1-Eya2 blk	TRPML1 ag	TRPML1 inh	TRPV1 potentiator	D2 potentiator	CtBP-E1A inh
Cn1c(CC(=O)Nc2ccccc2C(F)(F)F)c(Sc2ccccc2)c2ccccc21	0	3.1	-5	4	-1	-10
CCOC(=O)N1CCN(C(=O)c2ccc(S(=O)(=O)Nc3cccc(C(F)(F)F)c3)cc2)CC1	-1	-0.3	34	-5	6	-1
CCOC(=O)C1(C)CCCN(C(=O)c2ccccc2OC(F)(F)F)C1 (configuration not stated)	35	-0.2	1	.	1	2
CC1(c2ccc3ccccc3c2)NC(=O)N(CC(=O)N2CCCC(C(F)(F)F)C2)C1=O (configuration not stated)	1	2.2	-2	0	-3	-14
